AF4-AF9 inh = blocks AF4 peptide binding to human AF9; inhibition, % at 10 µM; AID 651704; AlphaScreen, biotin-AF4 peptide binding to FLAG-AF9; 350,000 compounds, 0.47% hits;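 active = every replicate reaching a set inhibition limit, whatever the replicate mean, cut at about 25% in these data; inconclusive = mean inhibition reaches that limit but some replicates miss it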;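 note: 0% = plate neutral control median and 100% = total signal loss; the record names both 10 and 1 µM as test concentration; the first replicate is given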
Target sequence (P42568 whole entry, looked up): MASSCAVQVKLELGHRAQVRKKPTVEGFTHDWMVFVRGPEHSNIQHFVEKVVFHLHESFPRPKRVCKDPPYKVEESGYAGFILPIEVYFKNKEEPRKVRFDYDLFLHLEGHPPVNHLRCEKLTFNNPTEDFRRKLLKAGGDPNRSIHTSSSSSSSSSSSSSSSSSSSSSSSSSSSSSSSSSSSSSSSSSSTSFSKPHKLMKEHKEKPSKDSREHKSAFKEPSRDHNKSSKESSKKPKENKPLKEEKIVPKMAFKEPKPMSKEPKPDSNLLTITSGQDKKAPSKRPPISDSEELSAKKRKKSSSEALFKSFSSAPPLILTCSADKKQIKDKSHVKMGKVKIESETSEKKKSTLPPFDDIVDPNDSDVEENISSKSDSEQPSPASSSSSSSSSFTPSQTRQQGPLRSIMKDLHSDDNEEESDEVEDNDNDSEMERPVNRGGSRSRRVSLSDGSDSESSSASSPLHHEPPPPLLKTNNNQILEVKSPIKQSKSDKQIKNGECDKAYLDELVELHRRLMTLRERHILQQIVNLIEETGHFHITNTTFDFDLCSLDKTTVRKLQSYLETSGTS
FGF22 binding = shifts melting point of recombinant human FGF22; calls only at 9.99 µM; recombinant FGF22 thermal shift, SYPRO orange fluorescence; percent of sucrose octasulfate shift, DMSO zero; 340,000 compounds, 1.5% hits; Q9HCT0;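 active = melting point raised past a set limit in the mean and every replicate; inconclusive = no clear call; three in four hits are not shown here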
Target sequence (Q9HCT0 whole entry, looked up): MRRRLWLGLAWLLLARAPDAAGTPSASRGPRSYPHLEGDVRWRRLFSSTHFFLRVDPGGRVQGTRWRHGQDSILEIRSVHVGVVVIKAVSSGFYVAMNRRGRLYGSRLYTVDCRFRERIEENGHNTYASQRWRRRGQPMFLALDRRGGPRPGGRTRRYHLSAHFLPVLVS
rRNA inh HTS = inhibitors of bacterial rRNA selective over humanized ribosomes; E. coli WT GFP vs humanized-ribosome RFP mutants, fluorescence, 24 h; stronger effect = lower value; DMSO median 0, no signal -100; GFP signal change (wild-type ribosome), % (test concentration not listed); 350,000 compounds, 1.6% hits; AID 720706;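 active = significant combined selectivity score with lowered wild-type GFP, culture density cut under 30%, mutant RFP and density less affected; inactive = any of these conditions unmet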; note: one replicate is shown; some compounds called inactive have numbers as strong as hits
T cruzi inh = blocks replication of Trypanosoma cruzi | 300,000 compounds, 1.4% hits | T. cruzi beta-gal in NIH3T3, luminescence, 90 h | inhibition, % (test concentration not listed) | AID 1885;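 active = mean inhibition across valid replicates above about 55%, limit read from the data; inconclusive = mean below that limit but half or more replicates reach it; inactive = mean below it, under half of replicates reach it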;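 note: signal also drops with host cell toxicity which is not excluded here; 0% = plate median of DMSO wells and 100% = zero luminescence signal; higher percent means less beta-gal luminescence so fewer parasites; stock transfer was 50 nL into about 50 µL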
Calb FLC = affects C. albicans growth with fluconazole. C. albicans CaCi-2 (fluconazole-resistant clinical isolate) + fluconazole, Alamar Blue growth, 48 h. growth inhibition, % (test concentration not listed). 300,000 compounds, 0.57% hits;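 active = most replicates above 75%; inconclusive = exactly half above 75%; inactive = most below 75%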;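 note: all wells also contain fluconazole at 8 µg/ml as a sub-toxic cotreatment; 0% = median of DMSO wells and 100% = median of geldanamycin control wells; wells of about 8 µL received 7.5 nL stock; the first replicate is given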
ALR H2O2 inh = inhibitors of human sulfhydryl oxidase ALR. 290,000 compounds, 3.8% hits. purified ALR, DTT oxidation, H2O2 HRP-luminol luminescence. AID 485317. P55789. inhibition, % (concentration not given with the values);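 active = mean and each replicate at 75% or more; inconclusive = only one of the two met; inactive = neither met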;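 note: stock transfer was 7.5 nL into about 7.5 µL; 0% = neutral wells and 100% = wells with inactivated enzyme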
Target sequence (P55789 whole entry, looked up): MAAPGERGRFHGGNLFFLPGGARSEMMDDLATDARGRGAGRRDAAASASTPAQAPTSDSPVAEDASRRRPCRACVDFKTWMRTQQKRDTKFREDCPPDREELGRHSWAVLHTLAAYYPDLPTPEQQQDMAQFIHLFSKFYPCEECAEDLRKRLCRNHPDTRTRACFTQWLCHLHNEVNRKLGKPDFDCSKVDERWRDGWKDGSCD
RanGTP-Impb inh = inhibitors of RanGTP-importin-beta interaction, primary screen, biochemical, FRET, CFP-Ran, YFP-importin-beta, homogeneous; 300,000 compounds, 1.1% hits; cell-free CFP-Ran/YFP-importin-beta FRET ratio; inhibition, % (no concentration beside the values);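 active = most replicates above 15%; inconclusive = exactly half above 15%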;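 note: 0% = DMSO wells and 100% = Ran loaded with GDP instead of GTP; wells of about 40 µL received 100 nL stock; the first replicate is given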
Beta apoptosis = beta cell apoptosis inhibition. INS-1E cytokine-induced death, ATP luminescence, 48 h; percent of positive-control rescue, neutral wells zero. protection from apoptosis, % (concentration not given with the values). 300,000 compounds, 0.8% hits;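 active = all replicates at 75% or more, or half of them and the mean; inconclusive = half reach 75% but not the mean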;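 note: 0% = cytokine-treated negative control wells and 100% = positive control rescue; higher means more ATP so stronger rescue from cytokine killing; wells of about 40 µL received 100 nL stock; the first replicate is given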
rRNA inh HTS OD600 = further read-out of rRNA inh HTS, marked with its call; OD600 change, %; measured here: OD600 growth;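 optical density of the mix in the first replicate; 0 = DMSO median and -100 = no signal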
rRNA inh HTS RFP = second read-out of rRNA inh HTS, no call of its own (marks repeat the call); RFP signal change, %; measured here: RFP humanized mutant strains;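 first replicate; 0 = DMSO median and -100 = no signal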
Starred values were filed as active, the others as inactive.

What do the screens show for `CSCC(O)Cn1[nH]c(=O)c2cc(Cl)c(Cl)cc2c1=O` (stereo not drawn)?
AF4-AF9 inh: -3.4; FGF22 binding: inactive; rRNA inh HTS: -6; T cruzi inh: 9; Calb FLC: -5; ALR H2O2 inh: -1; RanGTP-Impb inh: -5.4; rRNA inh HTS OD600: -6; rRNA inh HTS RFP: -2.2

Results for O=C(CSc1ccccc1)NCc1ccccn1 ?
AF4-AF9 inh: 1.2; FGF22 binding: inactive; rRNA inh HTS: 12; T cruzi inh: -13; Calb FLC: -2; ALR H2O2 inh: 10; RanGTP-Impb inh: 7.4; Beta apoptosis: -4; rRNA inh HTS OD600: 0; rRNA inh HTS RFP: -0.6

What do the screens show for `O=C(COC(=O)c1cccnc1Nc1ccccc1F)NC1CC1`?
AF4-AF9 inh: -4.2; FGF22 binding: inactive; rRNA inh HTS: 2; T cruzi inh: -3; Calb FLC: 3; RanGTP-Impb inh: 3.7; Beta apoptosis: -7; rRNA inh HTS OD600: -2; rRNA inh HTS RFP: -1.0

How did COCCCn1c(SCC(=O)Nc2ccc3c(c2)OCCO3)nnc1-c1ccoc1C do in these assays?
T cruzi inh: 6; Calb FLC: -1; ALR H2O2 inh: 2; RanGTP-Impb inh: 3.6; Beta apoptosis: 6

How did CC(C)(C)OC(=O)NCCc1nnc(SCc2ccc(Cl)cc2Cl)o1 do in these assays?
T cruzi inh: 21; Calb FLC: -2; RanGTP-Impb inh: -2.5; Beta apoptosis: -10

How did Cc1cc([N+](=O)[O-])nn1CC(=O)Nc1c(C)n(C)n(-c2ccccc2)c1=O do in these assays?
AF4-AF9 inh: -4.0; FGF22 binding: inactive; rRNA inh HTS: -5; T cruzi inh: -6; Calb FLC: -3; ALR H2O2 inh: -6; RanGTP-Impb inh: 0.1; Beta apoptosis: -8; rRNA inh HTS OD600: -2; rRNA inh HTS RFP: -2.5

What do the screens show for `COC(=O)Cc1c(C)nc2nc(-c3ccc(Cl)cc3)[nH]n2c1=O`?
T cruzi inh: -3; Calb FLC: -1; ALR H2O2 inh: inconclusive; RanGTP-Impb inh: -0.7; Beta apoptosis: 4

What do the screens show for `O=C(O)c1ccc(NS(=O)(=O)c2ccc(Cl)c(C(=O)Nc3ccccc3)c2)cc1`?
AF4-AF9 inh: -1.8; FGF22 binding: inactive; rRNA inh HTS: 0; T cruzi inh: -14; Calb FLC: -12; ALR H2O2 inh: -13; RanGTP-Impb inh: 2.2; Beta apoptosis: -11; rRNA inh HTS OD600: 4; rRNA inh HTS RFP: -0.6

What do the screens show for `O=C(CC1SC(=Nc2ccccc2)N(CCc2ccccn2)C1=O)Nc1ccc(F)cc1` (stereo not drawn)?
AF4-AF9 inh: 2.1; rRNA inh HTS: -41; T cruzi inh: -1; Calb FLC: -4; ALR H2O2 inh: -1; RanGTP-Impb inh: 1.0; Beta apoptosis: -9; rRNA inh HTS OD600: -72; rRNA inh HTS RFP: -3.2

Results for O=C(/C=C/c1ccc(Cl)cc1)N1CCN(Cc2ccccc2)CC1 ?
AF4-AF9 inh: 3.7; FGF22 binding: inactive; rRNA inh HTS: -15; T cruzi inh: 16; Calb FLC: 6; RanGTP-Impb inh: -2.2; Beta apoptosis: -4; rRNA inh HTS OD600: -22; rRNA inh HTS RFP: -2.5

How did COCCOC(=O)C1=C(C)Nc2nc(C)nn2C1c1ccc(F)cc1 (stereo not drawn) do in these assays?
AF4-AF9 inh: -0.6; FGF22 binding: inactive; rRNA inh HTS: 3; T cruzi inh: 7; Calb FLC: -11; ALR H2O2 inh: 17; RanGTP-Impb inh: -0.6; Beta apoptosis: -5; rRNA inh HTS OD600: 2; rRNA inh HTS RFP: -3.5

Results for CN1CCCCc2c1[nH]c1ccccc1c2=O ?
T cruzi inh: -16; Calb FLC: -1; ALR H2O2 inh: -37; RanGTP-Impb inh: 2.0; Beta apoptosis: -5

Reprinted from the part before: two compounds, then new ones.
How did COCCOC(=O)C1=C(C)Nc2nc(C)nn2C1c1ccc(F)cc1 (stereo not drawn) do in these assays?
AF4-AF9 inh: -0.6; FGF22 binding: inactive; rRNA inh HTS: 3; T cruzi inh: 7; Calb FLC: -11; ALR H2O2 inh: 17; RanGTP-Impb inh: -0.6; Beta apoptosis: -5; rRNA inh HTS OD600: 2; rRNA inh HTS RFP: -3.5

Results for CN1CCCCc2c1[nH]c1ccccc1c2=O ?
T cruzi inh: -16; Calb FLC: -1; ALR H2O2 inh: -37; RanGTP-Impb inh: 2.0; Beta apoptosis: -5

What do the screens show for `Cc1cccc(C)c1NC(=O)CNC(=O)CCNC(=O)c1ccco1`?
AF4-AF9 inh: 3.1; FGF22 binding: inactive; rRNA inh HTS: 7; ALR H2O2 inh: -3; Beta apoptosis: -6; rRNA inh HTS OD600: 8; rRNA inh HTS RFP: -2.1

How did COc1cc(CNc2ccc(CNc3ncn[nH]3)cc2)cc(Cl)c1OCc1ccccc1 do in these assays?
T cruzi inh: -17; Calb FLC: 1; ALR H2O2 inh: 3; RanGTP-Impb inh: 3.0; Beta apoptosis: -19

Results for CSCC[C@H](NC(=O)OC(C)(C)C)C(=O)NCC1CCC(C(=O)N[C@@H](Cc2ccccc2)C(=O)O)CC1 (stereo partly drawn) ?
AF4-AF9 inh: 1.7; FGF22 binding: inactive; rRNA inh HTS: 9; T cruzi inh: 3; Calb FLC: 4; ALR H2O2 inh: -8; RanGTP-Impb inh: -1.1; Beta apoptosis: 0; rRNA inh HTS OD600: 3; rRNA inh HTS RFP: 11

How did N#C/C(=C\c1cccc([N+](=O)[O-])c1)c1nnc2n1CCCCC2 do in these assays?
T cruzi inh: 0; Calb FLC: 5; ALR H2O2 inh: 16; RanGTP-Impb inh: 1.2; Beta apoptosis: 7

What do the screens show for `CCC(C)C(=O)Nc1ncc2c(n1)CC(c1cccs1)CC2=O` (stereo not drawn)?
T cruzi inh: -14; Calb FLC: -4; ALR H2O2 inh: -2; RanGTP-Impb inh: -0.9; Beta apoptosis: 0

Results for COc1ccc(-n2c(Cc3cc(=O)[nH]c(=O)[nH]3)nnc2SCC(=O)N2CCCC2)cc1 ?
AF4-AF9 inh: -3.6; FGF22 binding: inactive; rRNA inh HTS: 5; T cruzi inh: -5; Calb FLC: -1; ALR H2O2 inh: -19; RanGTP-Impb inh: -1.6; Beta apoptosis: -1; rRNA inh HTS OD600: 11; rRNA inh HTS RFP: -1.4

What do the screens show for `CNC(=O)C1CCN(C(=O)c2ccc(-c3ccccc3)cc2)CC1`?
T cruzi inh: -10; Calb FLC: -4; ALR H2O2 inh: -4; RanGTP-Impb inh: -4.4; Beta apoptosis: -1

How did N#Cc1c2c(c(Nc3ccc(O)cc3)n3c1nc1ccccc13)CCC2 do in these assays?
T cruzi inh: 5; Calb FLC: -5; ALR H2O2 inh: 3; RanGTP-Impb inh: -1.9; Beta apoptosis: -6

How did CCCCNc1nc(Cl)nc(Nc2ccc(C)cc2)n1 do in these assays?
AF4-AF9 inh: 0.6; FGF22 binding: inactive; T cruzi inh: 13; Calb FLC: 7; ALR H2O2 inh: 1; RanGTP-Impb inh: -0.4; Beta apoptosis: 12

What do the screens show for `Oc1cccc(/C=N/N=C/c2cccc(O)c2O)c1O`?
AF4-AF9 inh: -1.3; FGF22 binding: inactive; rRNA inh HTS: 12; T cruzi inh: -24; Calb FLC: 6; ALR H2O2 inh: -2; RanGTP-Impb inh: -1.0; rRNA inh HTS OD600: 15; rRNA inh HTS RFP: 1.6

Results for CC(Sc1nc(N)cc(=O)[nH]1)C(=O)Nc1sc2c(c1C#N)CCCC2 (stereo not drawn) ?
AF4-AF9 inh: 0.1; FGF22 binding: inactive; rRNA inh HTS: -33; T cruzi inh: -24; Calb FLC: 42; ALR H2O2 inh: 92*; RanGTP-Impb inh: -2.9; Beta apoptosis: 13; rRNA inh HTS OD600: -44; rRNA inh HTS RFP: -9.4

What do the screens show for `COc1ccccc1-n1cc(-c2ccccc2)c2c(=S)nc[nH]c21`?
AF4-AF9 inh: 13; FGF22 binding: inactive; rRNA inh HTS: -42; T cruzi inh: -37; Calb FLC: -7; ALR H2O2 inh: -1; RanGTP-Impb inh: 0.4; Beta apoptosis: -2; rRNA inh HTS OD600: -34; rRNA inh HTS RFP: -2.7

Results for Clc1cccc(C2=NOC(c3nnc(-c4ccccc4)o3)C2)c1 (stereo not drawn) ?
FGF22 binding: inactive; rRNA inh HTS: -18; T cruzi inh: 0; Calb FLC: 14; ALR H2O2 inh: 2; RanGTP-Impb inh: -0.5; Beta apoptosis: -4; rRNA inh HTS OD600: -18; rRNA inh HTS RFP: 1.6

Results for Cc1ccc(/C=N/NC(=O)CNC(=O)COc2ccccc2)cc1 ?
AF4-AF9 inh: -4.1; FGF22 binding: inactive; rRNA inh HTS: 24; T cruzi inh: 9; Calb FLC: -3; ALR H2O2 inh: -1; RanGTP-Impb inh: -1.4; Beta apoptosis: 8; rRNA inh HTS OD600: 7; rRNA inh HTS RFP: -4.1

How did CSc1nc2[nH]ncc2c(=O)[nH]1 do in these assays?
AF4-AF9 inh: 3.7; FGF22 binding: inactive; rRNA inh HTS: 26; T cruzi inh: -10; Calb FLC: -7; ALR H2O2 inh: 4; RanGTP-Impb inh: 0.3; rRNA inh HTS OD600: 22; rRNA inh HTS RFP: -0.2

What do the screens show for `CCOC(=O)CSc1nc2cc(C(=O)OC)ccc2c(=O)n1CCN1CCOCC1`?
rRNA inh HTS: 0; T cruzi inh: 3; Calb FLC: 6; RanGTP-Impb inh: 0.5; Beta apoptosis: 6; rRNA inh HTS OD600: 6; rRNA inh HTS RFP: -3.6

How did COc1cc2[nH]c3c(c2cc1OC)CCN1CCCC[C@@H]31 do in these assays?
AF4-AF9 inh: 4.9; FGF22 binding: inactive; T cruzi inh: 0; Calb FLC: -7; ALR H2O2 inh: -4; RanGTP-Impb inh: -13; Beta apoptosis: 3

Results for O=C(Nc1ccccc1N1CCOCC1)c1ccc([N+](=O)[O-])o1 ?
AF4-AF9 inh: -2.5; FGF22 binding: inactive; rRNA inh HTS: 7; T cruzi inh: 34; Calb FLC: 26; RanGTP-Impb inh: 0.9; Beta apoptosis: 53; rRNA inh HTS OD600: 11; rRNA inh HTS RFP: -2.6

What do the screens show for `CNC(=O)C12CC3CC(C1)CC(c1ccc(C)cc1)(C3)C2`?
AF4-AF9 inh: -16; FGF22 binding: inactive; rRNA inh HTS: -15; T cruzi inh: 2; Calb FLC: -1; ALR H2O2 inh: 9; RanGTP-Impb inh: -0.7; rRNA inh HTS OD600: -24; rRNA inh HTS RFP: 0.1

Results for COc1ccc(N(CC(=O)NC2CC3CCC2C3)S(=O)(=O)c2ccccc2)cc1Cl (stereo not drawn) ?
AF4-AF9 inh: 2.7; FGF22 binding: inactive; rRNA inh HTS: -14; T cruzi inh: 24; Calb FLC: -3; ALR H2O2 inh: -8; RanGTP-Impb inh: 3.8; Beta apoptosis: 6; rRNA inh HTS OD600: -40; rRNA inh HTS RFP: 2.7

How did CCNC(=S)N/N=C/c1sc(N2CCCCC2)nc1-c1cccs1 do in these assays?
T cruzi inh: 35; Calb FLC: 18; ALR H2O2 inh: 9; RanGTP-Impb inh: 0.1; Beta apoptosis: 50

Screening data as filed in PubChem BioAssay.

A portion of the library; rates above refer to the full screens.
